Hsp90 block: tumor Hsp90 inhibitors, primary screen, cell lysate, fluorescence polarization, NCI-N417 lysate. AID 429, 2006. Heat shock protein HSP 90-alpha (Homo sapiens), P07900. inhibition, % at 30 µM. 64,000 compounds, 0.35% hits. Cy3B-geldanamycin FP displacement;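 active = inhibition above 50%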;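 also: 0% = tracer plus lysate wells and 100% = tracer alone without lysate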
Abs 340nm: compound light absorbance at 340 nm, profiling panel, artefact control, biochemical, MLSMR library, data from PS, PMK, MK assays; compound absorbance at 340 nm, fold over control; fold change at 10 µM; 65,000 tested, under 10 active; AID 708, 2007;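 active = at 10 µM dose, initial 340 nm absorbance at least 2 fold that of control wells; inactive = change under 2 fold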;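 also: initial absorbance extrapolated from kinetic A340 decline of NADH oxidation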
Fluor 339 460: intrinsic fluorescence of library compounds, ex339/em460 – biochemical, MLSMR library, data from DPM-DC assay, artefact control, profiling panel. compound autofluorescence, ex339/em460 nm, NADH buffer; hits give high values; 1 = no-compound wells, NADH background. fluorescence fold increase at 10 µM. 65,000 compounds, 5.5% hits;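 active = at 10 µM, mean starting fluorescence two-fold or more over control wells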;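 also: signal is the first read of a kinetic run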
Her2 expr inh: inhibitors of Her2 protein expression, primary screen, SKBR-3 cells, AlphaScreen, 66K library | HER2 level % of control, % at 10 µM | SKBR-3 HER2 protein level, 18-24 h; hits give low values | 65,000 compounds, 0.69% hits | AID 645, 2007;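 active = HER2 level under 5% of the carrier-only control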;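 also: 100% = DMSO carrier and 0% = 500 nM PU-H71 HSP90 inhibitor; lower value means stronger loss of Her2 protein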
Target sequence (P04626 whole entry, looked up): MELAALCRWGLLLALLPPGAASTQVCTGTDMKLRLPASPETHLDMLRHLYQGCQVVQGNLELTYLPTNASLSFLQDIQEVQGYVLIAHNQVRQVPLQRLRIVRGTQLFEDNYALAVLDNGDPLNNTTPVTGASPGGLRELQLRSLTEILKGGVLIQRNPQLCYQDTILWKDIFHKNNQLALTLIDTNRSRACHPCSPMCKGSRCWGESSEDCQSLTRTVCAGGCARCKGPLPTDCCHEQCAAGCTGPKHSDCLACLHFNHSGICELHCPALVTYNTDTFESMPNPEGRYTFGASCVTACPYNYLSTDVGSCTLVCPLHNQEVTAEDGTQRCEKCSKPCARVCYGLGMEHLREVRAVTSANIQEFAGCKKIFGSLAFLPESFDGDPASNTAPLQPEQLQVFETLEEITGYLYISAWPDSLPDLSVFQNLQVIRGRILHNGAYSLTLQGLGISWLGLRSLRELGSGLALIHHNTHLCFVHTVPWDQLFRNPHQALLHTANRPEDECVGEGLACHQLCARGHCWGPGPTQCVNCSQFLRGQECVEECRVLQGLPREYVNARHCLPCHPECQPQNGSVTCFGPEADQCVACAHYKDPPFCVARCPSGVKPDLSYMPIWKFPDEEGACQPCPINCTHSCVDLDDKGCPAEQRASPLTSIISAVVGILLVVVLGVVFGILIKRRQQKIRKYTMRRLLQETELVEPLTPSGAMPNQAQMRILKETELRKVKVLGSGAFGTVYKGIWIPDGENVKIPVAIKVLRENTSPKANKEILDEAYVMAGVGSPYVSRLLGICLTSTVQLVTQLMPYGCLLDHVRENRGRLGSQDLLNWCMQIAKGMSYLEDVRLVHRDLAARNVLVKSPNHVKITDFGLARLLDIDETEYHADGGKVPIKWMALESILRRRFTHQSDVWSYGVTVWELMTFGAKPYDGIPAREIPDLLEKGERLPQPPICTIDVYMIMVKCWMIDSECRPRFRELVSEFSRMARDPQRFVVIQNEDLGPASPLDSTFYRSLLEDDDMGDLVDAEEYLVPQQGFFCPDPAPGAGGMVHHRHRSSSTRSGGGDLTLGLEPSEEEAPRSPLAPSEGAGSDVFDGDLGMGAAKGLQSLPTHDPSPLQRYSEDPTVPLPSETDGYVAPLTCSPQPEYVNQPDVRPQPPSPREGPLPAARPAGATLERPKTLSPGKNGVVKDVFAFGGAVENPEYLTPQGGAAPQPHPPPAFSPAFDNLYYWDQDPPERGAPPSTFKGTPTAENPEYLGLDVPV
JNK3 inh: JNK3 kinase activity inhibitors, primary screen, biochemical, human, purified enzyme. Mitogen-activated protein kinase 10 (Homo sapiens), P53779. HTS. inhibition, % at 8 µM. 60,000 compounds, 0.61% hits; in the data active = inhibition above about 17%;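 also: 0% = DMSO and 100% = reference inhibitor; many of its hits are not listed in these tables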
MKP-1 inh: MKP-1 phosphatase inhibitors, primary screen, biochemical, in vitro | 65,000 compounds, 0.15% hits | Dual specificity protein phosphatase 1 (Homo sapiens), P28562 | recombinant MKP-1, OMFP hydrolysis fluorescence | inhibition, %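 (compounds tested at a single concentration somewhere between 10 and 100 µM)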 | AID 374, 2006;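 active = inhibition above about 50%, limit read from the data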;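 also: 0% = DMSO max control wells and 100% = wells with enzyme stopped by NaOH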
Cdc25B block: inhibitors of Cdc25B phosphatase catalytic domain, primary screen, biochemical, OMFP fluorescence; 65,000 compounds, 0.1% hits; recombinant Cdc25B, OMFP fluorescence Ex485/Em525; inhibition, %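 (compounds tested at 10 µM final in the well)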; M-phase inducer phosphatase 2 (Homo sapiens), P30305; in the data active = inhibition above about 50%
* hit, by the source's call. These rows are one share of the data (hit frequency here may not be typical).

For COc1cc(-c2cccs2)cc(=O)c2c(C)oc(C)c12 the results were Hsp90 block -5.7, Abs 340nm 1.01, Fluor 339 460 1.12, Her2 expr inh 90.5, JNK3 inh 4.6, MKP-1 inh 13.4 and Cdc25B block 22.2.
Cc1cccc(-n2c(C)nc3c(cnn3-c3ccc(F)cc3)c2=O)c1 was read as Hsp90 block 2.0, Abs 340nm 1, Fluor 339 460 1.11, Her2 expr inh 83.9, JNK3 inh 0.3, MKP-1 inh 3.6 and Cdc25B block -5.1.
Screening Cc1csc(NC(=O)CSc2nnc(-c3ccncc3)o2)n1 returned Hsp90 block -4.0, Abs 340nm 1.01, Fluor 339 460 1.07, Her2 expr inh 101.2, JNK3 inh 0.1, MKP-1 inh 33.4 and Cdc25B block 2.5.
Cc1ccc(-n2c(-c3ccncc3)nnc2-c2ccco2)cc1 was read as Hsp90 block -2.5, Abs 340nm 0.98, Fluor 339 460 1.27, Her2 expr inh 110.0, JNK3 inh 1.0, MKP-1 inh 0.1 and Cdc25B block -1.1.
`CCOC(=O)c1ccc(Nc2ncnc3nc[nH]c23)cc1` gave Abs 340nm 1.13, Fluor 339 460 0.93, Her2 expr inh 160.8, MKP-1 inh -4.3 and Cdc25B block -15.2.
`CCc1ccc(NC(=O)N(CCCOC(C)C)C2CCN(C(C)=O)CC2)cc1` gave Hsp90 block 1.9, Abs 340nm 0.99, Fluor 339 460 1.04, Her2 expr inh 94.3, JNK3 inh 0.1, MKP-1 inh 30.5 and Cdc25B block -2.4.
For CCN(CCCNC(=O)C1CCN(S(=O)(=O)CC)CC1)c1cccc(C)c1 the results were Hsp90 block -0.7, Abs 340nm 1.03, Fluor 339 460 1.09, Her2 expr inh 98.3, JNK3 inh -4.5, MKP-1 inh 3.1 and Cdc25B block -5.8.
For O=C(O)CCNc1nc(-c2ccccc2)nc2ccccc12 the results were Hsp90 block 0.8, Abs 340nm 1.01, Fluor 339 460 1.08, Her2 expr inh 65.6, JNK3 inh 1.2, MKP-1 inh -3.4 and Cdc25B block -4.5.
Screening CCCN(c1ccc(OCC)cc1)c1ncnc2nc[nH]c12 returned Hsp90 block 6.0, Abs 340nm 1.04, Fluor 339 460 1.04, Her2 expr inh 109.1, JNK3 inh 2.6, MKP-1 inh -4.3 and Cdc25B block -6.0.
For CC(C)C(=O)Nc1ccc(Nc2ccccc2)cc1 the results were Hsp90 block 1.2, Abs 340nm 1.02, Fluor 339 460 1.07, Her2 expr inh 103.2, JNK3 inh -14.2, MKP-1 inh 8.8 and Cdc25B block -1.0.
For O=C(Cc1c(F)cccc1Cl)Nc1ccon1 the results were Hsp90 block -0.1, Abs 340nm 1.02, Fluor 339 460 1.12, Her2 expr inh 81.4, JNK3 inh -8.6, MKP-1 inh -12.8 and Cdc25B block 4.0.
For COCCn1c(-c2ccccc2)nc2oc3ccccc3c(=O)c2c1=O the results were Hsp90 block 0.1, Abs 340nm 1.09, Fluor 339 460 1.14, Her2 expr inh 64.6, JNK3 inh -5.3, MKP-1 inh -13.7 and Cdc25B block -16.0.
Screening O=C(c1ccco1)N1CCN(C(=O)C2CC(c3ccc(Cl)c(Cl)c3)=NO2)CC1 (stereo not given) returned Hsp90 block -2.9, Abs 340nm 1.01, Fluor 339 460 1.12, Her2 expr inh 72.0, JNK3 inh -1.5, MKP-1 inh 10.0 and Cdc25B block 1.6.
`Clc1ccc(C(c2nnnn2C2CCCC2)N2CCSCC2)cc1` (stereo not given) gave Hsp90 block 1.3, Abs 340nm 1.04, Fluor 339 460 1.1, Her2 expr inh 70.5, JNK3 inh -6.3, MKP-1 inh -5.7 and Cdc25B block 2.0.
For c1ccc(-n2c(-c3ccncc3)nnc2-c2ccco2)cc1 the results were Hsp90 block -1.9, Abs 340nm 1, Fluor 339 460 1.16, Her2 expr inh 82.3, JNK3 inh -5.9, MKP-1 inh 7.2 and Cdc25B block -6.1.
For C=CCn1c(SCC(=O)Nc2ccccc2CC)nnc1-c1ccncc1 the results were Hsp90 block -0.8, Abs 340nm 1.03, Fluor 339 460 1.1, Her2 expr inh 96.4, JNK3 inh 0.0, MKP-1 inh 29.4 and Cdc25B block 7.6.
`O=C(COC(=O)CCC(=O)c1ccc2c(c1)OCCO2)NCc1ccc2c(c1)OCO2` gave Hsp90 block -4.2, Abs 340nm 0.98, Fluor 339 460 1.09, Her2 expr inh 95.2, JNK3 inh 1.1, MKP-1 inh 20.2 and Cdc25B block 2.6.
CCOc1ccc2[nH]cc(C(=O)N3CCN(CC)CC3)c(=O)c2c1 was read as Hsp90 block -4.2, Abs 340nm 1.04, Fluor 339 460 1.79, Her2 expr inh 100.4, JNK3 inh -1.2, MKP-1 inh -11.9 and Cdc25B block 2.2.
O=C(Cn1cnc2c(cnn2-c2ccc(F)cc2)c1=O)NCCc1ccccc1 was read as Hsp90 block -5.0, Abs 340nm 1.03, Fluor 339 460 1.08, Her2 expr inh 69.2, JNK3 inh 8.9, MKP-1 inh 5.4 and Cdc25B block -7.9.
For COc1ccccc1N1CCN(CCNC(=O)Nc2cccc(C)c2C)CC1 the results were Hsp90 block -3.0, Abs 340nm 1.06, Fluor 339 460 1.11, Her2 expr inh 61.9, JNK3 inh -1.6, MKP-1 inh -4.1 and Cdc25B block 1.0.
For COc1cc(-c2cc(OC)c3c(C)oc(C)c3c(=O)c2)ccc1O the results were Hsp90 block 1.4, Abs 340nm 1.06, Fluor 339 460 1.05, Her2 expr inh 54.4, JNK3 inh -2.5, MKP-1 inh 27.1 and Cdc25B block 0.3.
C1=C(CCNc2ncnc3nc[nH]c23)CCCC1 was read as Hsp90 block 3.3, Abs 340nm 1.02, Fluor 339 460 1.09, Her2 expr inh 94.6, JNK3 inh -1.7, MKP-1 inh -12.4 and Cdc25B block -3.6.
`CC(C)c1nc2n[nH]c(N)c2c2c1CCC2` gave Hsp90 block -1.6, Abs 340nm 1.01, Fluor 339 460 1.02, Her2 expr inh 121.1, JNK3 inh 2.6, MKP-1 inh -20.3 and Cdc25B block 6.9.
Screening Cc1cc(NC(=O)c2cc(-c3cccc(Cl)c3)on2)no1 returned Hsp90 block -3.6, Abs 340nm 1.01, Fluor 339 460 1.06, Her2 expr inh 86.2, JNK3 inh 2.6, MKP-1 inh 21.6 and Cdc25B block 1.6.
`O=C(NC1=NCCS1)C1CC(=O)N(c2ccccc2)C1` (stereo not given) gave Hsp90 block -3.7, Abs 340nm 0.98, Fluor 339 460 1.01, Her2 expr inh 100.8, JNK3 inh 8.8, MKP-1 inh 11.2 and Cdc25B block -5.4.
For Nc1c(C(=O)NCCc2ccccc2)nnn1Cc1ccccc1 the results were Hsp90 block -2.0, Abs 340nm 0.99, Fluor 339 460 0.97, Her2 expr inh 93.7, JNK3 inh 4.6, MKP-1 inh 6.0 and Cdc25B block -1.5.
Screening CSc1ccccc1N=CC1=C(O)CC(C)(C)CC1=O returned Hsp90 block 3.3, Abs 340nm 1.04, Fluor 339 460 1, Her2 expr inh 96.0, JNK3 inh 4.8, MKP-1 inh -4.6 and Cdc25B block -8.1.
CCN(CC)CCCOc1nc(C)nc2c1oc1ccccc12 was read as Hsp90 block 1.9, Abs 340nm 0.99, Fluor 339 460 1.11, Her2 expr inh 122.8, JNK3 inh 10.1, MKP-1 inh -2.1 and Cdc25B block 6.5.
Screening O=C(Nc1ccc(Cc2ccncc2)cc1)c1ccco1 returned Hsp90 block -4.3, Abs 340nm 0.98, Fluor 339 460 1.13, Her2 expr inh 116.9, JNK3 inh 2.1, MKP-1 inh -5.1 and Cdc25B block -11.4.
Cc1ccc2cc3cc(C(=O)NCCCN4CCCCCC4)oc3nc2c1 was read as Hsp90 block 3.6, Abs 340nm 1.11, Fluor 339 460 5.1*, Her2 expr inh 59.0, JNK3 inh 2.9, MKP-1 inh -0.9 and Cdc25B block 3.5.
`CCn1ncc(Cl)c1C(=O)Nc1ccncc1` gave Hsp90 block -2.2, Abs 340nm 1, Fluor 339 460 1.07, Her2 expr inh 122.0, JNK3 inh 1.9, MKP-1 inh -4.2 and Cdc25B block 1.0.
`CCCCS(=O)(=O)NC1=NCN(C2CCN(Cc3ccccc3)CC2)CN1` gave Hsp90 block 0.0, Abs 340nm 1, Fluor 339 460 1.04, Her2 expr inh 85.7, JNK3 inh -1.0, MKP-1 inh -7.3 and Cdc25B block -0.3.
For Cc1cc(NC(=O)Cc2c(F)cccc2Cl)no1 the results were Hsp90 block -5.1, Abs 340nm 0.99, Fluor 339 460 1.01, Her2 expr inh 82.7, JNK3 inh -2.5, MKP-1 inh 2.2 and Cdc25B block -16.8.
Screening Cc1ccc2c(c1)[nH]c1c(N3CCN(Cc4ccc5c(c4)OCO5)CC3)ncnc12 returned Hsp90 block -7.0, Abs 340nm 1.09, Fluor 339 460 1.54, Her2 expr inh 66.4, JNK3 inh 2.3, MKP-1 inh 10.1 and Cdc25B block 3.9.
For c1cncc(Nc2nc(-c3cccnc3)cs2)c1 the results were Hsp90 block 3.8, Abs 340nm 1.1, Fluor 339 460 1.13, Her2 expr inh 112.4, JNK3 inh -7.4, MKP-1 inh 3.0 and Cdc25B block 2.8.
`c1cc(CSc2nnc(-c3ccc4c(c3)OCO4)o2)ccn1` gave Hsp90 block -6.7, Abs 340nm 1, Fluor 339 460 1.04, Her2 expr inh 95.8, JNK3 inh 9.1, MKP-1 inh -0.5 and Cdc25B block -17.1.
For CCc1cc2c(NC(C(=O)O)C(C)C)ncnc2s1 (stereo not given) the results were Hsp90 block 0.9, Abs 340nm 1.04, Fluor 339 460 1.16, Her2 expr inh 83.9, JNK3 inh 6.1, MKP-1 inh 0.6 and Cdc25B block 3.4.
Screening Cc1ccc(-c2[nH]n3c(=O)c4c(nc3c2C)CCCC4)cc1 returned Hsp90 block -2.1, Abs 340nm 1.04, Fluor 339 460 2.39*, Her2 expr inh 102.9, JNK3 inh 9.8, MKP-1 inh -15.1 and Cdc25B block 0.3.
Screening CCCCc1ccc(Nc2ncnc3nc[nH]c23)cc1 returned Hsp90 block 1.2, Abs 340nm 1.01, Fluor 339 460 1.11, Her2 expr inh 90.8, JNK3 inh 6.2, MKP-1 inh 12.4 and Cdc25B block -6.7.
COc1ccc(NC(=O)CSC2=C(C#N)C(c3ccco3)C3=C(CCCC3=O)N2)c(OC)c1 (stereo not given) was read as Hsp90 block -7.8, Abs 340nm 0.99, Fluor 339 460 1.06, Her2 expr inh 60.5, JNK3 inh -0.7, MKP-1 inh -0.5 and Cdc25B block 19.2.
`c1ccc(-n2ncc3c2ncn2cnnc32)cc1` gave Hsp90 block 1.6, Abs 340nm 1, Fluor 339 460 1.24, Her2 expr inh 92.0, JNK3 inh -0.8, MKP-1 inh -2.4 and Cdc25B block 6.1.
CCOCCCN(C(=O)Nc1ccc(CC)cc1)C1CCN(C(C)=O)CC1 was read as Hsp90 block -3.3, Abs 340nm 1.02, Fluor 339 460 1.01, Her2 expr inh 84.9, JNK3 inh -0.1, MKP-1 inh 8.3 and Cdc25B block -11.2.
For O=C(CN1C(=O)NC2(CCCC2)C1=O)N1CCN(C(=O)c2ccco2)CC1 the results were Hsp90 block -2.4, Abs 340nm 0.96, Fluor 339 460 1.08, Her2 expr inh 151.1, JNK3 inh -3.0, MKP-1 inh 7.9 and Cdc25B block -10.4.
For CCc1nc2oc3ccccc3c(=O)c2c(=O)n1CCOC the results were Hsp90 block -4.6, Abs 340nm 0.97, Fluor 339 460 1.16, Her2 expr inh 72.2, JNK3 inh -5.0, MKP-1 inh 12.2 and Cdc25B block -17.4.
CC1(C)CC(=O)c2cnc(NCc3ccco3)nc2C1 was read as Hsp90 block 1.1, Abs 340nm 1, Fluor 339 460 1, Her2 expr inh 90.1, JNK3 inh -1.8, MKP-1 inh -12.5 and Cdc25B block 2.1.

Source: PubChem
